Compound activity: PubChem BioAssay, several laboratories
Bead autofluor – compound fluorescence in toxin protease inhibitor counterscreen; compound autofluorescence counterscreen, microsphere flow cytometry; stronger effect = higher value; fluorescence intensity (concentration not given with the values); actives 3.1% (n = 360,000); AID 624483;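 active means at least 3 SD above the mean of all compounds, about 16000 in these data; inconclusive means too few beads counted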;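 further: 100 nL of 1 mM stock went into each well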
PrP 5UTR inh – inhibition of PrP 5' UTR reporter expression; cell-based PrP 5' UTR mRNA reporter, plate reader; inhibition, % (no concentration beside the values); actives 0.35% (n = 340,000); AID 488862, 2010;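 active means every replicate at 50% or more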;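 further: 0 = median of the neutral control wells; tested in H4 reporter cells; numbers are from one replicate; inactives centre near -14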
BJeLR viability – MLPCN primary cell-based screen for lethality selective to Ras in HRASV12 cells; actives 0.17% (n = 300,000); BJeLR (HRASV12) viability, CellTiter-Glo ATP luminescence, 48 h; reference of the scale not given here; inhibition, % (test concentration not listed);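 active means replicate mean above 50%; inconclusive means above 50% but judged a plate artefact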;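 further: 50 nL library stock added to about 25 µL; numbers are from one replicate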
Sa RN4220 lethal – growth inhibition of S. aureus RN4220, primary screen, OD600 | 16 h | inhibition, % (no concentration beside the values) | actives 0.33% (n = 330,000) | AID 1259311, 2017;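 active means z-score of -3 or lower and OD600 up to 0.18 on both plates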;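 further: plate controls were untreated cells for no effect and reference antibiotic for full effect; stock transfer was 100 nL into about 80 µL; one replicate is shown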
Mtb hypoxia rep – PubChem AID 1159583; M. tuberculosis hypoxia-regulated fluorescent reporter, fluorescence; actives 0.1% (n = 300,000); fluorescence inhibition, % (test concentration not listed);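 active means 35 to 45% if threefold the growth effect, above 45% if 1.5-fold the growth effect; inactive means the rest, general growth blockers included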;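 further: wells of about 50 µL received 100 nL stock; 0% = vehicle wells and 100% = reference inhibitor wells; whole bacteria with a GFP reporter of the hypoxia response; strong numbers were not always called active; many hits fall short of the cut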
Sa ugtP lethal – growth inhibition of ugtP-null S. aureus, primary screen, RN4220 ugtP deletion, OD600; 16 h; some inactives read as strong as hits; growth inhibition, % (concentration not given with the values); actives 0.54% (n = 330,000); AID 1259309, 2017;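 active means z-score under -3 and OD600 up to 0.15 on both plates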;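 further: plate controls were untreated wells for no effect and antibiotic for full effect; wells of about 80 µL received 100 nL stock; the first replicate is given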
Mtb hypoxia rep growth – also measured in Mtb hypoxia rep; calls as there; growth inhibition, %; measured here: M. tuberculosis growth (absorbance);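 0% = vehicle and 100% = reference antibiotic; read after six days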
Starred values were filed as active, the others as inactive; ? = inconclusive; . = no result given.

Values run as follows: Bead autofluor	PrP 5UTR inh	BJeLR viability	Sa RN4220 lethal	Mtb hypoxia rep	Mtb hypoxia rep growth	Sa ugtP lethal
[1] O=C(N/N=C/c1ccc(Cl)cc1)c1cc(-c2cccnc2)nc2ccccc12
  4053	-37	14	.	.	.	.
[2] N#CC1=C(c2ccc(-c3ccccc3)cc2)COC1=O
  4379	-18	-3	.	.	.	.
[3] CC(c1nnc(SCC(=O)Nc2ccc3[nH]c(=O)[nH]c3c2)n1Cc1ccccc1)N(C)C (configuration not stated)
  6203	-19	-11	3.4	12	3	6
[4] CCOC(=O)C1=C(C)N=C2SCCC(=O)N2C1c1cc(Br)ccc1OC (configuration not stated)
  3294	-8	-7	-1.6	-5	4	-3
[5] Cc1ccc(C(=O)Nc2sc3c(c2C(=O)O)CCCCC3)o1
  3221	-27	14	15	-5	-1	0
[6] O=C(Nc1ccccc1)Nc1ccc(S(=O)(=O)N2CCCCC2)cc1
  4497	-10	16	-3.8	.	.	-1
[7] C/C(CC(=O)Nc1ccc(N(C)C)cc1)=N\NC(=O)c1ccccn1
  2062	-14	0	.	.	.	.
[8] COC(=O)C(CCSC)NC(=O)c1cc2c(n(-c3ccccc3)c1=O)CCCC2=O (configuration not stated)
  4249	-22	-20	10	2	7	4
[9] COC(=O)C1=C(c2cccc(NC(C)=O)c2)CC2CCC1N2C (configuration not stated)
  .	.	.	2.6	2	8	-6
[10] CN(C(=O)c1cncc(Br)c1)C1C2CC3CC(C2)CC1C3 (configuration not stated)
  3097	-7	-3	12	21	7	2
[11] N#Cc1cn(Cc2cccc(Cl)c2)c2ccccc12
  2212	-25	-9	-4.9	.	.	5
[12] NS(=O)(=O)c1ccc(NC(=S)Nc2ccc(Br)c(Cl)c2)cc1
  2762	-19	3	.	.	.	.
[13] Cc1nnc(SCC(=O)N(CC(C)C)C2CCS(=O)(=O)C2)s1 (configuration not stated)
  .	-20	.	5.5	2	-5	8
[14] C(=Nn1cnnc1)c1ccccc1OCCOc1ccccc1
  .	.	.	-4.3	2	3	-5
[15] O=C(/C=C/c1cccc([N+](=O)[O-])c1)c1ccc2c(c1)OCCO2
  2764	-42	10	11	15	4	13
[16] O=C1C2C3C=CC(C2C(=O)N1c1nccs1)C1C(=O)N(c2nccs2)C(=O)C31 (configuration not stated)
  4598	-16	-5	-0.3	-3	6	-3
[17] CCN(CC(=O)Nc1c(F)cccc1F)C(=O)c1ccccc1F
  4241	-18	5	2.3	10	5	6
[18] COC(=O)[C@@H]1C[C@@H]2CC[C@@H](O)C[C@@H]2N1Cc1ccc(Cl)cc1
  6887	-22	-11	.	.	.	.
[19] CC12CCC(=O)CC1CCC1C2CCC2(C)C1CCC2(O)C(=O)CO (configuration not stated)
  2919	-10	.	23	7	-4	8
[20] COc1ccc(Cl)cc1NC(=O)CN(C)C(=O)c1cn(-c2ccccc2)nc1-c1cccnc1
  ?	-7	1	6.6	-4	-3	-3
[21] O=C(Cn1ncn2c(cc3cc(F)ccc32)c1=O)N1CCC2(CC1)OCCO2
  5692	-8	-7	2.3	12	0	3
[22] CCOC(=O)CNC(=O)N1CCc2ccc(NC(=O)c3ccccc3Cl)cc2C1
  3891	-22	-2	-2.4	17	14	11
[23] O=C(NCCCCNC(=O)c1ccccc1F)c1ccccc1F
  3771	-26	-6	4.4	9	4	12
[24] CSCCC(NC(=O)c1ccccc1Cl)C(=O)NCCc1ccccn1 (configuration not stated)
  7808	-23	.	4.6	5	1	5
[25] CNC(=S)Nc1cccc(S(=O)(=O)NCc2ccco2)c1
  2914	-22	.	5.5	9	7	7
[26] CC(C)C[C@H](NC(=O)c1[nH]cnc1C(=O)N[C@@H](Cc1ccccc1)C(=O)OCc1ccccc1)C(=O)OCc1ccccc1
  4111	-15	3	.	.	.	.
[27] Cc1ccc(Cn2nnc3c(=O)[nH]c(C4CCN(S(=O)(=O)c5ccc(F)cc5)CC4)nc32)cc1
  11467	-38	-1	4.6	3	8	20
[28] O=C(CCC(=O)Nc1nnc(C2CCCCC2)s1)Nc1ccccc1
  5656	-19	-2	1.9	-2	1	8
[29] CC(=O)NC(C)C(c1cccs1)N1CCN(c2ccccc2)CC1 (configuration not stated)
  16460*	-9	-8	2.4	1	5	11
[30] CCOc1ccc(-c2c(C(=O)N/N=C/c3ccc(O)cc3)nnn2-c2nonc2N)cc1
  4538	-2	5	.	.	.	.

Full records, quoted from the list. Values in the order: Bead autofluor, PrP 5UTR inh, BJeLR viability, Sa RN4220 lethal, Mtb hypoxia rep, Mtb hypoxia rep growth, Sa ugtP lethal
Profile of CC(C)C[C@H](NC(=O)c1[nH]cnc1C(=O)N[C@@H](Cc1ccccc1)C(=O)OCc1ccccc1)C(=O)OCc1ccccc1 → 4111, -15, 3, ., ., ., .
Profile of Cc1ccc(Cn2nnc3c(=O)[nH]c(C4CCN(S(=O)(=O)c5ccc(F)cc5)CC4)nc32)cc1 → 11467, -38, -1, 4.6, 3, 8, 20
Profile of O=C(NCCCCNC(=O)c1ccccc1F)c1ccccc1F → 3771, -26, -6, 4.4, 9, 4, 12
Profile of CSCCC(NC(=O)c1ccccc1Cl)C(=O)NCCc1ccccn1 (configuration not stated) → 7808, -23, ., 4.6, 5, 1, 5

Carrying on:
Values run as follows: Bead autofluor	PrP 5UTR inh	BJeLR viability	Sa RN4220 lethal	Mtb hypoxia rep	Mtb hypoxia rep growth	Sa ugtP lethal
[31] CCC(C)NC(=O)c1csc2c1CCCCC2 (configuration not stated)
  9048	-25	-14	2.4	20	10	-2
[32] O=C(Nc1ccc(S(=O)(=O)N2CCN(c3ccccc3)CC2)cc1)c1cccs1
  9339	-14	-7	3.5	-1	5	1
[33] CCOC(=O)c1cc(NC(=O)Nc2nc3ccccc3s2)c(C)nc1C
  2762	-22	-5	5.2	5	4	6
[34] O=C(c1c(Cl)nc2sccn12)N1CCN(c2cccc(Cl)c2)CC1
  2883	21	45	.	.	.	.
[35] COc1ccccc1NC(=O)COc1ccc(C(=O)OCC(=O)N(C(C)C)C(C)C)cc1OC
  9119	-21	2	7.7	2	9	-7
[36] O=C(NCc1ccccc1)c1cc(S(=O)(=O)N2CCC3(CC2)OCCO3)ccc1F
  10873	-16	.	2.5	-3	3	2
[37] O=C1c2cccnc2C(O)N1Cc1ccco1 (configuration not stated)
  9793	.	-7	4.4	8	8	2
[38] C=CCN1C(=O)/C(=C2/Sc3ccc(OC)cc3N2C)SC1=Nc1cccc(O)c1
  ?	-9	4	3.5	2	4	-3
[39] O=C1CC2(CCN(C(=O)c3cccc(F)c3)CC2)Oc2ccccc21
  6417	1	-5	-0.2	-9	7	-1
[40] Cc1ccc(S(=O)(=O)N(C)C)cc1NC(=O)CSc1nc2ccccc2[nH]1
  2461	-14	14	5.6	7	-1	-7
[41] COc1ccc([N+](=O)[O-])cc1NC(=O)CC1SC(=Nc2cccc(C)c2C)N(/N=C(\C)c2ccc(C)cc2)C1=O (configuration not stated)
  4337	-4	5	.	.	.	.
[42] O=C1CC2C(CC(OC(=O)c3ccc(-c4ccccc4)cc3)C2CO)O1 (configuration not stated)
  5119	-30	1	1.6	.	.	-3
[43] CCN(CC)CCN1C(=O)C(=O)/C(=C(/O)c2c(C)[nH]c(C(=O)OC)c2C)C1c1ccccc1OC (configuration not stated)
  3299	-23	-7	.	.	.	.
[44] Cc1ccccc1C(=O)NCCSc1ccccc1
  2093	-100	-11	6.4	.	.	7
[45] O=S(=O)(c1ccccc1)N1CCN(Cc2cc3c(cc2Br)OCCO3)CC1
  3864	-5	.	-1.1	-12	1	-3
[46] CSc1nnc2c3c4c(sc3c(=O)n(-c3ccccc3)n12)CC(C)(C)OC4
  3896	0	-9	1.6	13	7	3
[47] O=C(CN1CCN(Cc2ccccc2Cl)CC1)N/N=C/c1ccco1
  5417	-15	-6	.	.	.	.
[48] COc1ccc(OC)c(CNc2ccc(F)c(Cl)c2)c1
  11841	-15	4	-0.4	12	-1	7
[49] CN(C)c1cccc(/C=C(\C#N)c2ccccc2)c1
  4176	-18	33	-2.1	7	-7	22
[50] Cc1cccc(N2C(=O)c3cccc4c(N)ccc(c34)C2=O)c1
  4324	-5	-4	.	.	.	.
[51] CCCn1nnnc1SCC(=O)Nc1cccc(NC(=O)c2ccco2)c1
  6166	-33	-8	3.1	8	-2	4
[52] O=C(N/N=C\c1ccc(Cl)cc1Cl)c1sccc1-n1cccc1
  4666	-35	-1	.	.	.	.
[53] Nc1ncnc2c1ncn2[C@H]1C[C@H](O)[C@@H](CO)O1
  5226	-24	.	-1.0	.	.	-29
[54] Cc1nc(-n2ncc(C#N)c2N)c2c3c(sc2n1)CCC3
  22751*	-10	-5	0.4	3	7	1
[55] O=C(Nc1ccc(Cl)c(S(=O)(=O)N2CCOCC2)c1)c1ccccc1-c1ccc(C(F)(F)F)cc1
  2270	-35	-12	-2.5	3	2	-12
[56] CC(=O)Nc1cc(C)c(S(C)(=O)=O)c(C)c1
  2522	-17	2	2.8	10	7	1
[57] NS(=O)(=O)c1ccc(N/C=C\C(=O)c2ccc3ccccc3c2)cc1
  11320	-15	-11	4.8	2	0	3
[58] C(#CC1CCCCC1)c1ccc2c(c1)COc1c3ccccc3nn1-2
  3788	14	0	-2.5	12	9	4
[59] CCOC(=O)c1c(C)[nH]c(C(=O)O)c1C
  3187	-19	0	-7.4	10	14	2
[60] O=C(CC1CC2CCC1C2)NCc1cccs1 (configuration not stated)
  3025	-6	-7	-1.2	.	.	5

An excerpt of these results, with bars between the fields.
No. | Molecule | Bead autofluor | PrP 5UTR inh | BJeLR viability | Sa RN4220 lethal | Mtb hypoxia rep | Mtb hypoxia rep growth | Sa ugtP lethal
57 | NS(=O)(=O)c1ccc(N/C=C\C(=O)c2ccc3ccccc3c2)cc1 | 11320 | -15 | -11 | 4.8 | 2 | 0 | 3
58 | C(#CC1CCCCC1)c1ccc2c(c1)COc1c3ccccc3nn1-2 | 3788 | 14 | 0 | -2.5 | 12 | 9 | 4
59 | CCOC(=O)c1c(C)[nH]c(C(=O)O)c1C | 3187 | -19 | 0 | -7.4 | 10 | 14 | 2
60 | O=C(CC1CC2CCC1C2)NCc1cccs1 (configuration not stated) | 3025 | -6 | -7 | -1.2 | . | . | 5

Later entries
Values run as follows: Bead autofluor	PrP 5UTR inh	BJeLR viability	Sa RN4220 lethal	Mtb hypoxia rep	Mtb hypoxia rep growth	Sa ugtP lethal
[61] Cc1cc(C(=O)CCC(=O)N(C)CC(=O)Nc2c(Cl)cccc2Cl)c(C)s1
  ?	-9	4	3.9	3	6	7
[62] O=C(CSc1nnc(-c2ccco2)c(-c2ccco2)n1)Nc1ccccc1
  3411	4	-14	-9.6	22	11	-9
[63] N#CC(=C(O)CCl)c1nnc2n1CCCCC2
  .	.	.	9.8	22	18	4
[64] CCOn1c(=O)c(-c2ccc(Br)cc2)[n+]([O-])c2ccccc21
  4275	-13	-4	1.7	-3	-1	7
[65] COc1cccc(-c2ccc(NC(=O)C3CCCN(Cc4ccc(CO)o4)C3)cc2)c1 (configuration not stated)
  6160	-20	2	-0.5	8	11	2
[66] Cc1cc(C)c(NC(=O)CSc2nnc(CNC(=O)c3ccco3)o2)c(C)c1
  4632	1	5	3.6	-3	-7	8
[67] COc1ccccc1Oc1coc2c(CN3CCOCC3)c(O)ccc2c1=O
  4225	-18	5	1.4	0	-6	-4
[68] Cc1nnc(NC(=O)CSc2n[nH]c(-c3ccccc3C)n2)s1
  5812	-11	3	0.8	11	-2	1
[69] CCn1ccnc1CN(C)Cc1c(C(=O)N2CCCCCCC2)nc2ccc(Cl)cn12
  5073	-11	3	-0.4	3	14	7
